# From PubChem BioAssay
# Anaer choline gr – choline-fed anaerobic bacterial growth inhibition | Gram-negative bacterium anaerobic choline minimal medium, absorbance growth; hits give low values; many inactives read as strong as hits in the columns shown | calls only | 55,000 tested, 0.2% active | AID 1963822;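 active means growth z-score on choline under -2 at 7 or 20 h with little or no fall on glycerol, limits in tiers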;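 further: stock transfer was 300 nL into about 50 µL; the organism is E. coli; final concentration not given here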
# Anaer choline gr early – second read-out of Anaer choline gr, no call of its own (marks repeat the call); z-score; measured here: choline growth z-score, timepoint 1;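 score of optical density at 7 h as mean of two plates; lower means less growth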
# The depositor's hits bear a star; i = inactive; + = active, no number.
# Order of results: Anaer choline gr | Anaer choline gr early
> Cc1ccccc1N(C)C(=O)c1coc(=O)c2ccccc12
 : i | -1.36
> C=CCN1CCN(C2CCN(S(=O)(=O)c3cccc4nsnc34)CC2)C(=O)C1=O
 : i | 0.14
> CCOc1ccc(-c2nc(-c3cccc(NC(=O)Nc4ccccc4)c3)no2)cc1
 : i | 0.01
> Cc1ccc(N(C)S(=O)(=O)c2cc(-c3nc(C)cs3)sc2C)cc1
 : i | -0.9
> Clc1cc(Cl)cc(-c2ccc(CNCc3ccncc3)o2)c1
 : i | 0.45
> Cc1ccc(N2CCn3c(nc4ccccc43)C2)cc1NC(=O)CC(C)C
 : i | 0.57
> Cc1nc(S(=O)(=O)Nc2ccccc2)cn1C
 : i | -0.67
> Cc1occc1-c1nnc2sc(COc3ccc(Cl)cc3)nn12
 : i | 1.13
> Clc1ccccc1CNc1ncnc2c(-c3ccccc3)noc12
 : i | 1.28
> COc1ccc(Cl)cc1NS(=O)(=O)c1c(C)sc(C)c1-c1cc(C(F)(F)F)on1
 : i | 0.66
> CN1[C@@H]2CC[C@H]1CC(OC(=O)c1c[nH]c3ccccc13)C2 (stereo not given in full)
 : i | 0.32
> Cc1ccc(S(=O)(=O)N(C)c2nc3nc(C)cc(C)n3n2)cc1
 : i | 1.32
> CC(OC1OCCN(Cc2nn(P(=O)(O)O)c(=O)[nH]2)C1c1ccc(F)cc1)c1cc(C(F)(F)F)cc(C(F)(F)F)c1 (stereo not given)
 : i | 0.49
> CCS(=O)(=O)c1ccc(C(=O)Nc2nc(-c3ccncc3)cs2)cc1
 : i | 0.82
> CC1CC(C)CN(c2cc(C(=O)O)c3cc(NC(=O)C4CCC4)ccc3n2)C1 (stereo not given)
 : i | 0.07
> Cc1ccc(NC(=O)c2ccc3[nH]c(C)cc(=O)c3c2)cc1
 : i | -0.96
> COc1cccc(CN(CC2CCCO2)S(=O)(=O)c2ccc(S(=O)(=O)N3CCCC3)cc2)c1 (stereo not given)
 : i | 1.37
> NC(=O)c1ccccc1NC(=O)CSc1ncc(-c2ccc(Cl)cc2)o1
 : i | 1.54
> CCn1c(=O)sc2cc(NS(=O)(=O)c3ccc4c(c3)n(C)c(=O)n4C)ccc21
 : i | 0.28
> Cc1cc(C)c2c(n1)sc1c(=O)n(CC(=O)Nc3ccccc3Br)cnc12
 : i | 0.3
> CC1(C)CS(=O)(=O)N(c2cccc(C(=O)N3CCc4ccccc43)c2)C1=O
 : i | 0.41
> Cc1cc2c(cc1Cl)N(C(=O)Nc1ccc(Oc3cccnc3C)nc1)CC2
 : i | 0.52
> CC1CCCN(C(=O)c2cc(C3CC3)[nH]n2)C1 (stereo not given)
 : i | -1.53
> COc1ccc(-c2cc(N3CCN(C(=O)Nc4cc(Cl)c(OC)cc4OC)CC3)ncn2)cc1
 : i | -0.09
> O=C(Cn1ccn2nc(-c3ccc4c(c3)OCO4)cc2c1=O)Nc1ccc2c(c1)OCCO2
 : i | -1.08
> CCN1CCN(C(=O)C(C)N2C(=O)CCCc3ccccc32)CC1 (stereo not given)
 : i | -1.14
> N#CC1=CN(c2ccc(Cl)c(Cl)c2)c2cc(Cl)ccc2S1(=O)=O
 : i | 0.62
> Cc1ccc(NC(=O)NCCCn2c(-c3ccncc3)nc3cccnc32)c(Cl)c1
 : i | -2.48
> CCOc1cc(CN2CCCC2c2ccc(Cl)cc2)ccc1OCC(N)=O (stereo not given)
 : i | -0.37
> CC(C)Oc1ccc(-c2noc(CS(=O)(=O)c3ccc(Br)cc3)n2)cc1
 : i | 1.34

# 5 compounds already listed, sorted by their value in Anaer choline gr early, descending:
structure	Anaer choline gr early
NC(=O)c1ccccc1NC(=O)CSc1ncc(-c2ccc(Cl)cc2)o1	1.54
COc1cccc(CN(CC2CCCO2)S(=O)(=O)c2ccc(S(=O)(=O)N3CCCC3)cc2)c1 (stereo not given)	1.37
N#CC1=CN(c2ccc(Cl)c(Cl)c2)c2cc(Cl)ccc2S1(=O)=O	0.62
COc1ccc(-c2cc(N3CCN(C(=O)Nc4cc(Cl)c(OC)cc4OC)CC3)ncn2)cc1	-0.09
CCN1CCN(C(=O)C(C)N2C(=O)CCCc3ccccc32)CC1 (stereo not given)	-1.14

# Continuation.
# Order of results: Anaer choline gr | Anaer choline gr early
> Cc1oc(-c2cccc(Cl)c2)nc1CN1CCN(C(=O)C(C)C)CC1
 : i | -0.36
> CC(C)C[C@@H](NC(=O)OCC1c2ccccc2-c2ccccc21)C(=O)O
 : i | -0.18
> CCc1nc(N2CCc3ccccc32)c2onc(-c3ccc(C)cc3)c2n1
 : i | -0.23
> CCC(=O)Nc1ccc2c(c1)C(=O)Nc1cc(C)ccc1O2
 : i | 0.8
> CC1CCN(Cc2nnc(-c3ccccc3)o2)CC1
 : i | -1
> O=C(Nc1ccc2c(c1)OCO2)N1CCCN(c2nc3cc(Br)ccc3n3cccc23)CC1
 : i | 0.66
> Cc1cc(C)c(S(=O)(=O)Nc2cc(C(=O)O)cnc2N2CCCC2)c(C)c1
 : i | -0.31
> Cc1nc(CNC(=O)[C@H]2CSCN2C(=O)Nc2ccc(C)c(F)c2)cs1
 : i | 0.21
> CCn1c(CN2CCN(C)CC2)nc2cc(NC(C)=O)ccc21
 : i | 0.41
> COc1cc(NC(=O)C2CCC(CNS(=O)(=O)c3cccc4cccnc34)CC2)cc(OC)c1 (stereo not given)
 : i | -0.17
> CCC(C)(C)NC(=O)CN(C)S(=O)(=O)c1cc2c(cc1C)NC(=O)C(C)O2 (stereo not given)
 : i | -0.92
> CCNc1cc(C)nc(Nc2ccc(NS(=O)(=O)c3ccc(C)cc3)cc2)n1
 : i | -2
> Cc1ccc(S(=O)(=O)NC2CCN(C(=O)c3cc4cc(Cl)ccc4[nH]3)CC2)cc1
 : i | -0.16
> COc1ccc(-c2cc(=O)oc3cc(O)c(Cl)cc23)cc1
 : i | 0.6
> O=S(=O)(Nc1ccc2nnc(-c3cccc(Br)c3)n2n1)c1ccc(Cl)cc1
 : i | 1.26

# Overlap with the part before: 5 compounds, followed by the next part.
# Order of results: Anaer choline gr | Anaer choline gr early
> CCC(C)(C)NC(=O)CN(C)S(=O)(=O)c1cc2c(cc1C)NC(=O)C(C)O2 (stereo not given)
 : i | -0.92
> CCNc1cc(C)nc(Nc2ccc(NS(=O)(=O)c3ccc(C)cc3)cc2)n1
 : i | -2
> Cc1ccc(S(=O)(=O)NC2CCN(C(=O)c3cc4cc(Cl)ccc4[nH]3)CC2)cc1
 : i | -0.16
> COc1ccc(-c2cc(=O)oc3cc(O)c(Cl)cc23)cc1
 : i | 0.6
> O=S(=O)(Nc1ccc2nnc(-c3cccc(Br)c3)n2n1)c1ccc(Cl)cc1
 : i | 1.26
> COc1ccc(C)cc1S(=O)(=O)N1CCc2cc3cccc(C)c3nc21
 : i | 0.48
> Cc1cc(C(=O)NCC(C)c2ccccc2)c2c(=O)n(C)c(=O)n(C)c2n1 (stereo not given)
 : i | 0.99
> CC(=O)Nc1ccc(S(=O)(=O)N2CC(OCc3ccc(C)cc3)C2)cc1
 : i | -0.14
> Cc1cccc(NC(=O)c2ccc3nnc(SCC(=O)Nc4cccc(F)c4)n3c2)c1
 : i | -1.13
> COc1ccc2cc3c(nc2c1)N(C(=O)c1ccc(OC)c(OC)c1)CC3
 : i | 0.04
> COc1ccc(-c2cc3nc(C)cc(N4CCCC4)n3n2)cc1OC
 : i | -0.25
> Cc1cc(-c2c(C)sc(C)c2S(=O)(=O)NC2CCCCCC2)n[nH]1
 : i | 0.16
> Cc1ccc(-c2nc(CN3CCCC(C(=O)Nc4cc(Cl)ccc4O)C3)no2)cc1 (stereo not given)
 : i | -0.49
> CCCNC(=O)Cn1c(=O)c2c(OCC)c(C)cnc2n(C)c1=O
 : i | -0.64
> Cc1ccc(CNc2cc(C(C)C)nc3nc(-c4cccnc4)nn23)cc1
 : i | 0.91
> CCOC(=O)C1CCC(CNC(=O)N2CCC3(CC2)Nc2ccccc2-n2cccc23)CC1 (stereo not given)
 : i | 0.17
> Cc1ccc(C(=O)Oc2cc(N)n(S(=O)(=O)c3ccc(F)cc3)n2)cc1
 : i | 0.48
> O=C1CC(c2ccccc2)=Nc2ccccc2N1Cc1c(F)cccc1Cl
 : i | 0.12
> CC(C)Cc1ccc(S(=O)(=O)Nc2ccc(-c3nnc(-c4ccccc4)o3)cc2)cc1
 : i | 0.39
> O=c1ccc2cc(S(=O)(=O)N3CCN(c4ccc(N5CCOCC5)nn4)CC3)ccc2[nH]1
 : i | -0.03
> O=S(=O)(Cc1ccccc1)NC1COc2ccccc2C1 (stereo not given)
 : i | -0.59
> CCOc1ccc2oc(C)c(C(=O)Nc3ccc(OC)cc3OC)c2c1
 : i | 1.27
> CCc1nc(-c2cccc(NC(=O)c3cncc(Br)c3)c2)no1
 : i | -0.31
> O=C1Nc2cc(Cl)ccc2Oc2ccc(S(=O)(=O)N3CCOCC3)cc21
 : i | -1.31
> COc1ccc(Cc2nnc3c4cnn(-c5ccc(C)cc5)c4ncn23)cc1
 : i | 0.13
> C=CCSc1nc2ccccc2c2nc(-c3ccncc3)nn12
 : i | 0.51
> CCN1CCCC1CNC(=O)CN1C(=O)CN(C(=O)Nc2ccc(F)cc2)c2ccccc21 (stereo not given)
 : i | 0.34
> COc1ccccc1-c1nnc(C2CCN(S(=O)(=O)c3ccc(C4CCCCC4)cc3)CC2)o1
 : i | -0.14
> Cc1nc(NC2CCCC2)c2c(C)noc2n1
 : i | -0.38
> Cc1cc(N2CCN(C)CC2)n2nc(C(F)(F)F)c(-c3ccc(F)cc3)c2n1
 : i | -1
> CC(C)(C)NC(=O)CSc1nnc2c3ccccc3nc(-c3ccccc3)n12
 : i | 0.48
> CCC(C)NC(=O)CC1CCN(C(=O)C2CCCCC2)CC1 (stereo not given)
 : i | -1
> O=C1NCc2ccc(S(=O)(=O)NCc3ccc(F)cc3)cc21
 : i | -0.71
> Cc1c(C(=O)O)sc2ncnc(NC3CC3)c12
 : i | 0.19
> Cn1c(=O)c2c(-c3ccc(C(C)(C)C)cc3)c(NCc3ccccc3)oc2n(C)c1=O
 : i | -0.02

# Next records:
SMILES | Anaer choline gr | Anaer choline gr early
Cc1[nH]c(C)c(S(=O)(=O)N2CCC(C)CC2)c1-c1nnc(C2CCC2)o1 | i | -0.4
Cc1cc(NC(=O)CCc2nc(CSc3nc4ccccc4o3)no2)ccc1Br | i | 1.89
CC(C)CN(CC(C)C)C(=O)CN(C)S(=O)(=O)c1cccc2nsnc12 | i | 0.67
COc1ccccc1-c1nnc2sc(-c3cc(C)nc4ccccc34)nn12 | i | 2.75
CC(C)(C)Nc1c(-c2ccccc2)nc2sc(N3CCN(C(=O)c4cc5ccccc5[nH]4)CC3)nn12 | i | -1.09
O=S(=O)(Nc1cccn2cnnc12)c1ccc2c(c1)CCC2 | i | -0.47
CCCCNS(=O)(=O)c1ccc2c(c1)CCN2C(=O)CCC(=O)O | i | 0.65
Cc1csc(-c2cc(S(=O)(=O)N3CCCCC3)c(C)n2C)n1 | i | 2.48
CSc1ccc(N2C(C)=NS(=O)(=O)c3cccnc32)cc1 | i | 1.01
O=c1onc2n1-c1cc(Br)ccc1OC2 | + | -2.11*
Cc1cc2nc(CSc3nc4ccc(NC(=O)c5ccccc5)cc4s3)cc(=O)n2o1 | i | 0.61
CCS(=O)(=O)Nc1ccc(-c2noc(-c3ccc4c(c3)OCO4)n2)cc1 | i | -1.19
Cc1ccc(CCNC(=O)CCS(=O)(=O)c2ccc3c(c2)CC(C)N3C(=O)C2CC2)cc1 (stereo not given) | i | -1.17
Cc1ccc2c(c1)NC(=O)C(CC(=O)O)O2 (stereo not given) | i | -0.01
CCOC(=O)CNC(=O)N1CCCC1c1c(C)noc1C (stereo not given) | i | -0.36
CCCS(=O)(=O)N1CCCC(C(=O)NCCCN2CCC(Cc3ccccc3)CC2)C1 (stereo not given) | i | -0.21
O=c1ccc(-c2nc(-c3ccc(Br)cc3)no2)cn1Cc1cc(=O)n2ccccc2n1 | i | 0.61
Cn1c(SCC(=O)NC2CCCC2)nc2c(-c3ccccc3)csc2c1=O | i | 3.27
COc1cc(OC)c(NC(=O)C2CCCN2c2nn3c(=O)cc(C)nc3s2)cc1Cl (stereo not given) | i | -0.07
CCCCCNC(=O)Cc1csc(COc2cccc(C)c2)n1 | i | 0.23
O=C(Nc1ccccc1)c1nnc(CCC(=O)N2CCN(c3ccc(F)cc3)CC2)s1 | i | 0.23
Cc1onc(-c2ccccc2Cl)c1C(=O)Nc1c(-n2cnnc2)nn(C)c1C | i | -0.4
O=S(=O)(Nc1ccc(Cn2cnc(-c3nc(-c4cccc(F)c4)no3)c2)cc1)c1cccc(F)c1 | i | -0.15
O=C(C1CCN(c2ncnc3c2oc2ccccc23)CC1)N1CCc2ccccc2C1 | i | 0.93
Cn1c(=O)c(-c2noc(C(=O)N3CCN(C4CCCCC4)CC3)n2)nn(-c2ccccc2)c1=O | i | 0.02
Cc1ccc(-c2ccc(C(=O)NC3CCCC3)cn2)cc1 | i | 0.1
COc1cccc(-c2nc(C(N)=O)c3[nH]c(=O)n(CC4CCCO4)c3n2)c1O (stereo not given) | i | 0.63
COc1cc(=O)n(-c2ccccc2C)nc1C(=O)Nc1ccc(Br)cc1 | i | -0.44
COc1ccccc1C1CC(=O)Nc2c1c(-c1ccccc1)nn2-c1ccccc1 (stereo not given) | i | -0.61
CN1C(=O)c2cc(NC(=O)c3ccc4c(c3)OCO4)ccc2N2CCN=C12 | i | 0.58
CC(=O)Nc1ccc(NC(=O)c2cc(C)nc3c2c(=O)n(C)c(=O)n3C)cc1 | i | 0.92
O=C(NCCC1=CCCCC1)C1CCCCN1S(=O)(=O)c1ccc(Cl)cc1 (stereo not given) | i | 0.17
CC(C)N1CCC(CC(=O)N2CCc3c(c(-c4nc(C5CC5)no4)nn3C)C2)CC1 | i | -0.45
CCN(c1ccccc1)S(=O)(=O)c1ccc(C(=O)Nc2sc3c(c2C(N)=O)CCC3)cc1 | i | 0.79
COc1ccc(-c2cn3c(n2)sc2cc(C(=O)Nc4ccc(F)cc4Cl)ccc23)cc1 | i | 0.89
CCOc1ccccc1NC(=O)Nc1cc2c(cc1N1CCCCC1)n(CC)c(=O)n2CC | i | 0.35
CCOc1ccccc1CNC(=O)c1cc2cc3ccc(OC)c(Cl)c3nc2s1 | i | 1.03

# Some of the compounds tested, so the mix of outcomes need not match the whole.
